Screening data (PubChem BioAssay)
ClpP mod = qHTS Assay for Activators of ClpP | ATP-dependent Clp protease proteolytic subunit (Bacillus subtilis (strain 168)), P80244 | purified B. subtilis ClpP, FRET peptide cleavage, 20 min | Potency, µM (series often up to 57.5 µM), for inactives: at the top dose activity change, negative = active | 1.9% of 340,000 active | AID 651965, 2013; active = well fitted falling curve with a large enough effect; inconclusive = small, poorly fitted or top-dose-only effect; inactive = no such curve, though single readings can be large or run the other way; further: potency means the concentration at half of the fitted maximal effect; the source files actives as falling curves though it sought activators and does not explain the sign; nearly all actives have a fitted effect of over 65% in size; many hits overshoot -100%
Target sequence (P80244 whole entry, looked up): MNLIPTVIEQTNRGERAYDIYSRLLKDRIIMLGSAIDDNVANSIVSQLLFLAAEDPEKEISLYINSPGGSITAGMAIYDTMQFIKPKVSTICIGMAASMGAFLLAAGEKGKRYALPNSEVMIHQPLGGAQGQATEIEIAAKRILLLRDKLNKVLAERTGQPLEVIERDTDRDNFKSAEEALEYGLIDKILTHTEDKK
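ClpP 10 microg/mL final, pH 8 Tris/KCl buffer with BSA, glycerol, Tween-20; compound pinned in; FRET-FV substrate; RT 20 min; Ex320/Em430; ΔFRET vs ADEP 5.8 microM, DMSO, no enzyme.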
Menin MLL FP FL = inhibitors of human menin-MLL interaction, wild-type MLL peptide; AID 1766; Fluorescence polarization, fluorescein-MLL peptide displacement from menin; FP activity change, % at 61.4 µM; 290,000 tested, under 10 active; inconclusive = falling polarisation curve, or a change in total fluorescence; inactive = total fluorescence flat and polarisation flat or rising; no compound was filed as active; the % refers to the polarisation; negative = inhibition;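 further: % of control where 0% means no effect; inhibitors lower the polarisation; unlabelled MLL peptide was the positive control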
gsp antag = antagonists of gsp mutant (McCune-Albright syndrome). gsp-mutant cells, cAMP HTRF, 30 min; control for the full effect not named in the record. Potency, µM (top dose mostly 76.9 µM), for inactives: at the top dose activity change, negative = inhibition, actives largely listed as inhibitors. 0.4% of 340,000 active. AID 624288; active = falling curve of any shape with a large fitted effect; inconclusive = falling curve, mostly with a smaller effect; inactive = flat or rising curve; cell line not stated here;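 further: intracellular cAMP measured with PDE inhibitor Ro 20-1724 present during compound exposure; potency means the concentration at half of the fitted maximal effect; on the % scale 0 is the no-effect control and ±100 the full control effect; nearly all actives have a fitted effect of over 65% in size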
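G418-selected cells were plated in DMEM/10% FBS for 16-24 h at 37C, then treated with compounds plus the PDE inhibitor […] (300 uM solution added) for 30 min at 37C. Intracellular cAMP was measured by HTRF after 30 min lysis at room temperature.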
TRPV1 potentiator = human TRPV1 potentiation; Q8NER1; TRPV1-expressing cells, Fluo-8 calcium influx, capsaicin EC20 potentiation; host cell line not named in the record; control for the full effect not named in the record; potentiation, % at 8.33 µM; 0.02% of 320,000 active; AID 540277; active means potentiation above 80%; inconclusive means 30% to 80%; inactive means below 30%; further: 0% is about no effect
Target sequence (Q8NER1 whole entry, looked up): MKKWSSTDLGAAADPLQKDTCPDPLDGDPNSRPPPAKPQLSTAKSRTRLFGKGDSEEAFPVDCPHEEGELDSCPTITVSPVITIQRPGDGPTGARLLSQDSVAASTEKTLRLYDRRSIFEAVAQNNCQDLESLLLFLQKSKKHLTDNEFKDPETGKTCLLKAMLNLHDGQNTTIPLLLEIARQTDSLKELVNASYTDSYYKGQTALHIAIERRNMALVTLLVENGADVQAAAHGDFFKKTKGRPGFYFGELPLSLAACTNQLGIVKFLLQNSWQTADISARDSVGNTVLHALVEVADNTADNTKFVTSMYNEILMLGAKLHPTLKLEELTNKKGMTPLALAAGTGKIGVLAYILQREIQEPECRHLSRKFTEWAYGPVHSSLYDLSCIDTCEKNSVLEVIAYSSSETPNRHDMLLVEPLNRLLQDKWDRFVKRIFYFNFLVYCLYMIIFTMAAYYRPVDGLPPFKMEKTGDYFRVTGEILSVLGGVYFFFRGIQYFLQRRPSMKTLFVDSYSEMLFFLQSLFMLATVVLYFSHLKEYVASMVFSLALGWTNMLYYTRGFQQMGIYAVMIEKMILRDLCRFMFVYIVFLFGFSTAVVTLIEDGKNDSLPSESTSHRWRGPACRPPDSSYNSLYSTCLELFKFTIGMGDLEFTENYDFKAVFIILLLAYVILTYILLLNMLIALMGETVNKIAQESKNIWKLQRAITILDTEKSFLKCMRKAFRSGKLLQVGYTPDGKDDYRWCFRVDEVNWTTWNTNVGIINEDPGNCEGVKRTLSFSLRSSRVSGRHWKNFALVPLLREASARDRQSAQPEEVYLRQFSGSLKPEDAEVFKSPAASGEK
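Cells expressing TRPV1 were dye-loaded with Fluo-8 and read kinetically: 10 s baseline, 3 min after compound (agonist portion), then 2 min after EC20 capsaicin (allosteric enhancer portion). Calcium-bound dye fluorescence at 480/520 nm.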
gsp agonist = agonists of gsp mutant (McCune-Albright syndrome); gsp mutant cells, cAMP HTRF, 30 min; control for the full effect not named in the record; Potency, µM (series often up to 76.9 µM), inactives show at the top dose activation (cAMP increase), most hits filed as activators; 0.13% of 340,000 active; AID 624287; active = well fitted activation curve with a large enough effect; inconclusive = small, poorly fitted or top-dose-only effect, or another doubt; inactive = no such curve, though single readings can be large or run the other way; cell line not stated here;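 further: phosphodiesterase inhibitor Ro 20-1724 added with compounds to block cAMP breakdown; potency means the concentration at half of the fitted maximal effect; nearly all actives have a fitted effect of over 60% in size; about a fifth of the inactives were tested at one dose only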
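Cells in DMEM/10% FBS with G418 were pretreated with compounds in DMSO plus […] (300 uM stock) for 30 min at 37C. cAMP was measured by HTRF (cAMP-d2 plus anti-cAMP antibody-K) after 30 min at room temperature.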
D2 potentiator = positive allosteric modulators of human D2 dopamine receptor; DiscoveRx D2 beta-arrestin cells, luminescence, 90 min; 100% = 57 uM dopamine signal; potentiation, % (test concentration not listed); 0.23% of 360,000 active; active = potentiation of 50% or more; inconclusive = 30% to 50%; inactive = 30% or less;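 further: compound concentration not given in the record; tested on top of an EC20 dose of dopamine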
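D2 cells co-treated with compound plus 50 nM dopamine (EC20) for 90 min at 37 deg C to detect potentiation. Beta-arrestin recruitment was read as enzyme-fragment luminescence after 1 h at ambient temperature. Full response was set by 57 uM dopamine.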
Sfp inh = blocks B. subtilis Sfp PPTase activity. Biochemical Sfp PPTase activity, qHTS. Potency, µM, inactives show max response, negative = inhibition, actives largely listed as inhibitors. 3.5% of 310,000 active; active means well fitted inhibition curve with a large enough effect; inconclusive means small, poorly fitted or top-dose-only effect, or another doubt; inactive means no such curve, though single readings can be large or run the other way;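 further: the enzyme is Sfp with the accession as filed and its product quenches rhodamine fluorescence; potency means the concentration at half of the fitted maximal effect; 0% = enzyme reaction without inhibitor and -100% = no enzyme wells; top concentration of the series not given in the record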
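Reaction rates are the 30-min fluorescence difference (ex 525, em 598 nm) in wells containing 15 nM Sfp, 5 uM rhodamine-CoA and 12.5 uM BHQ-2-YbbR at pH 7.6 with 10 mM MgCl2.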
The depositor's hits bear a star; ? = inconclusive; / = not tested or not shown; & = joins results of further samples; [ ] = another dose, or the depositor's remark.

SMILES	ClpP mod	Menin MLL FP FL	gsp antag	TRPV1 potentiator	gsp agonist	D2 potentiator	Sfp inh
O=C(NC1CCCC1)c1cc(-c2ccccc2)nc2ccccc12	0.3%	-1.3	4%	-8	-2%[15.4 µM]	-1	2%
CSc1ccccc1NC(=O)c1cc(C2CC2)on1	0.7%	-3.6	3%	-2	-3%	1	18µM*
O=C(Nc1ccc2c(c1)OC1(CCCC1)O2)C1CC1	0.1%	0.8	8%	-13	-38%[inhibitor]	13	-5%
Cc1ccc2c(c1)sc(C)[n+]2CCCS(=O)(=O)[O-]	/	1.1	12%	-13	?	-26	1µM*
CCCn1c(SCC(=O)N2c3ccc(F)cc3CCC2C)nnc1-c1ccccn1 (stereo unspecified)	-0.4%	3.9	-14%	6	14%	-15	-7%
Cc1ccc(NC(=O)CSc2ccc(C(N)=O)cc2[N+](=O)[O-])cc1	-1.2%	-1.0	17%	6	16%	-12	12%
Cc1ccc(C)c(-n2c(-c3csc(C)c3)n[nH]c2=S)c1	?	3.4	-30%	?	0%	-8	17%
O=C(Nc1ccc(-c2cn3ccsc3n2)cc1)c1ccc(F)c(S(=O)(=O)N2CCOCC2)c1	-3.3%	2.6	-20%	?	20%	13	8%
Cc1onc(-c2c(F)cccc2Cl)c1C(=O)Nc1nc2c(s1)CCCC2	-2.6%	1.3	-12%	1	41%	8	-2%
CCOc1ccc(CNC(=O)C2CC(=O)N(C3CCCC3)C2)cc1OC (stereo unspecified)	-0.7%	0.6	-3%	-3	?	0	12%
CC1(C)CC2(CC(c3ccccc3F)c3ccc(O)c(O)c3O2)NC(=S)N1 (stereo unspecified)	/	-0.9	-5%	10	14%[15.4 µM]	3	8.9µM*
Cc1ccc(C)c2[nH]c(=O)c(CCNC(=O)c3ccc(S(=O)(=O)N4CCCC4)cc3)cc12	-5.8%	0.1	?	2	?	1	-1%
CC1(C)CC(=O)C(C(O)c2ccccc2)C(C)(C)N1 (stereo unspecified)	1.2%	-0.2	-11%	10	20%	-1	13%
COc1ccc2cc3cc(C(=O)NC(C)C)oc3nc2c1	-47%	1.2	9%	23	30%	5	5%
CC1(C(=O)NNC(=O)C2CCCCC2)CC1(Cl)Cl (stereo unspecified)	/	1.7	2%	7	-6%[15.4 µM]	-6	17%
Cc1ccc(CN2CCN(/N=C/c3cc(Br)ccc3O)CC2)cc1	1.4%	-2.0	10%	5	-67%	-20	-3%
COc1ccc(CNC(=O)C(c2ccc(C)o2)N(Cc2cccs2)C(=O)Cc2cccs2)cc1 (stereo unspecified)	0.0%	?	-16%	-1	14%	-3	-22%
COC(=O)c1cn(C(=O)c2ccc(Cl)cc2)c2ccccc12	/	3.0	-7%	4	-23%	-5	-7%
O=C(Oc1ccc(-c2nnco2)cc1)c1cc(S(=O)(=O)N2CCOCC2)ccc1F	-6.2%	/	/	/	2%	-12	/
CC(=O)c1ccc(C(=O)NC2CC(C)(C)Cc3c2cnn3-c2ccccc2)cc1 (stereo unspecified)	2.0%	/	7%	-16	-6%	-22	7%
Cc1ccc2[nH]c(=O)c(CN(Cc3cccnc3)C(=S)NCCCN(C)C)cc2c1	-1.2%	-0.9	-20%	4	34%[15.4 µM]	-11	?
CCC(=O)N(CC)C1=C(O)c2ccccc2C(=O)C1=O	2.5%	1.5	9%	8	-51%	-1	11µM*
O=C(Cn1nnc(-c2ccccc2)n1)NCC(=O)Nc1ccc(F)c(F)c1F	-0.7%	/	8%	/	0%	7	/
CCC(CC)N1CCN(Cc2nc3ccc([N+](=O)[O-])cc3c(=O)n2-c2ccccc2F)CC1	/	3.7	3%	?	-30%	-4	2%
O=C(NCCc1ccccc1)c1ccccc1[N+](=O)[O-]	2.9%	3.2	0%	-7	-20%	-2	14%

Further records:
SMILES	ClpP mod	Menin MLL FP FL	gsp antag	TRPV1 potentiator	gsp agonist	D2 potentiator	Sfp inh
COC(=O)Nc1ccc2c(c1)N(C(=O)CCN(C)C)c1ccccc1CC2	-10.0%	-1.6	10%	1	-35%[inhibitor]	-4	1%
COC(=O)c1ccc(CNC(=O)COC(=O)Cc2ccsc2)cc1	/	2.1	3%	-5	-3%	-8	5%
Cc1ccnc(NC(=O)Nc2cccc(F)c2)n1	-1.2%	-8.2	1%	3	-19%	-4	8%
Cc1nc2ccc(F)cc2cc1C(=O)NCC1CCCO1 (stereo unspecified)	-2.6%	2.5	2%	-4	24%	?	8%
Cc1cc(Nc2nnnn2-c2ccccc2)n(-c2ccccc2)n1	-0.6%	1.8	-6%	-14	?	-9	0%
CC(C)(C)NS(=O)(=O)c1ccc(CCC(=O)NCc2ccco2)cc1	-3.1%	0.9	0%	8	-25%	6	-7%
COc1cc(=O)[nH]c(=O)n1C(=O)Cc1ccccc1	-2.0%	?	11%	3	1%	-5	10%
COc1ccc(/C=C2\SC(=O)NC2=S)cc1OC	-1.4%	?	-11%	0	2%[15.4 µM]	-8	25µM*
CNC(=S)N1CCN(c2ccc([N+](=O)[O-])cc2)CC1	-2.2%	-2.4	-5%	-5	-1%	-18	14%
NC(=O)c1c(NC(=O)CN2C(=O)NC(Cc3ccccc3)C2=O)sc2c1CCC2 (stereo unspecified)	-7.0%	1.5	-1%	4	-58%[inhibitor]	-5	7%
COc1ccccc1NC(=O)c1sc2ncn(Cc3ccc(C)cc3)c(=O)c2c1C	159%	2.6	-5%	3	-19%	1	14%
Nc1ncc(CN2CCCC(C(=O)Nc3ccc(-c4ccco4)cc3)C2)cn1 (stereo unspecified)	-1.4%	/	9%	5	?	-18	-19%
O=C(CN1C(=O)C2C3C=CC(C3)C2C1=O)OCC(=O)c1ccccc1 (stereo unspecified)	-3.0%	4.2	9%	1	0%	-9	0%
N#C/C(=C(/O)c1ccc(C(=O)c2ccccc2)cc1)c1nc2ccccc2[nH]1	/	-4.4	3%	11	19%[15.4 µM]	-3	7%
Cc1cc(=O)oc(C)c1C(=O)NCc1ccccc1	0.4%	1.6	-1%	7	-28%	-10	3%
C=C1CCN([C@@H](CC(C)C)C(=O)N2CCOCC2)S(=O)(=O)c2ccccc21	0.6%	/	-2%	/	-58%[inhibitor]	-10	/
COc1ccc(OC)c(-c2nnc(SCC(=O)N3CCCC3)o2)c1	/	1.6	-2%	3	17%[15.4 µM]	-3	7%
c1cncc(CNc2ncnc3sc4c(c23)CCC4)c1	/	-8.0	5%	-7	-1%	-10	-15%
CCOC(=O)N1CCC(NC(=O)c2cc3c(-c4cccc(OC)c4)nn(C)c3s2)CC1	?	-1.7	-19%	10	-33%[inhibitor]	-9	-1%
COc1cc(N(Cc2ccccc2)Cc2ccccc2)c2ncn(C(C)C)c2c1	-3.9%	/	-9%	0	-30%	-10	/
O=C(Nc1cccnc1)C1CCN(S(=O)(=O)c2cccc3nonc23)CC1	-1.6%	-7.3	-1%	-8	-41%[inhibitor]	-5	10%
N#C/C(=C(/O)COC(=O)CSc1ccc2ccccc2c1)c1nc2ccccc2[nH]1	-5.9%	16	1%	18	-7%	-7	2%
Cc1ccc(CSCC(=O)Nc2c(C)n(C)n(-c3ccccc3)c2=O)cc1	-2.3%	5.0	2%	9	4%	-15	4%
O=C(c1ccc(S(=O)(=O)N2CCCC2)cc1)N1CCCCCC1	0.3%	-1.2	0%	1	25%	4	17%
COc1ccc(OC)c(NC(=O)Nc2ccc3c(c2)CCC3)c1	0.5%	-3.0	-21%	-15	-44%[inhibitor]	-55	-6%

Other records.
SMILES	ClpP mod	Menin MLL FP FL	gsp antag	TRPV1 potentiator	gsp agonist	D2 potentiator	Sfp inh
Cc1ccccc1OCC(=O)OCC(=O)Nc1cc(C(F)(F)F)ccc1N1CCOCC1	-1.2%	1.2	2%	-9	?	-1	8%
Cc1ccc(NC(=O)COC(=O)CCC(=O)c2cccs2)c(C)c1	0.6%	-0.4	-2%	-10	18%	-2	16%
COc1ccc(/C=C/C(=O)NC(=S)N2CCSCC2)cc1	/	-4.5	1%	-15	-7%	-6	9%
O=C(CCC(=O)c1ccc(F)cc1)Nc1cc(Cl)cc(Cl)c1	1.8%	6.2	2%	-12	?	-24	4%
C/C(=N\Nc1ccc([N+](=O)[O-])cc1)c1cc2ccccc2o1	/	?	-3%	-8	-3%[15.4 µM]	-16	8%
O=C1c2ccccc2C(O)(c2ncc[nH]2)N1C1CCCCC1 (stereo unspecified)	-1.2%	0.5	12%	-6	20%	-7	-17%
COc1ccc(NC(=O)C2CCCN(C(=O)Nc3cccc(OC)c3)C2)cc1 (stereo unspecified)	/	2.4	-1%	-30	-5%	-5	0%
Nc1nc2c(ncn2-c2ccccc2)c(=O)[nH]1	-3.7%	/	6%	/	-8%	-6	/
c1ccc2c(c1)nnn2CNc1nccs1	1.1%	-1.0	-5%	9	-16%	9	7%
CCc1n[nH]c(=S)n1/N=C/c1ccccn1	-1.8%	-1.7	-6%	0	5%[15.4 µM]	-6	50µM*
CCCCCCC(=O)N(O)C1CC(=O)N(c2ccc(F)cc2)C1=O (stereo unspecified)	0.4%	0.2	14%	-2	3%[15.4 µM]	-7	20µM*
O=C(NCCc1c[nH]c2ccccc12)C(=O)NCC1OCCN1S(=O)(=O)c1cc(F)ccc1F (stereo unspecified)	-5.3%	5.8	?	5	-12%	-8	22%
O=C(CSc1nc2ccccc2s1)c1ccc(O)cc1O	-2.0%	-4.3	-16%	-6	-36%[inhibitor]	-10	?
Cn1c(=O)c2c(nc(CN3CCN(C(=O)c4ccco4)CC3)n2Cc2ccccc2)n(C)c1=O	-3.8%	1.9	-10%	0	4%	1	-19%
CCCCN(C(=O)C1=COCCO1)c1c(N)n(Cc2ccccc2)c(=O)[nH]c1=O	0.7%	/	17%	3	-24%[15.4 µM]	-24	/
CN(Cc1ccccc1)C(=O)C1CCN(S(=O)(=O)c2ccc3nc4c(c(C(=O)O)c3c2)CCCC4)CC1	-6.1%&-1.7%	-2.8	3%	-8	-15%	-1	7%

Given in CSV form: 2 of the compounds above
smiles,ClpP mod,Menin MLL FP FL,gsp antag,TRPV1 potentiator,gsp agonist,D2 potentiator,Sfp inh
O=C(NCCc1c[nH]c2ccccc12)C(=O)NCC1OCCN1S(=O)(=O)c1cc(F)ccc1F (stereo unspecified),-5.3%,5.8,?,5,-12%,-8,22%
CCc1n[nH]c(=S)n1/N=C/c1ccccn1,-1.8%,-1.7,-6%,0,5%[15.4 µM],-6,50µM*
